GLA inh pH 4.5: blocks human alpha-galactosidase A at pH 4.5. purified enzyme, 4-MU-alpha-Gal fluorescence, pH 4.5. activity change, negative = inhibition, % at 105 µM. 230,000 tested, under 10 active. AID 1467; inconclusive = small, poorly fitted or top-dose-only inhibition, or a rising curve; inactive = flat fitted curve, though single readings scatter; no compound was filed as active;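 also: 0% = full activity with enzyme and -100% = basal without enzyme; dose as in the result columns while the protocol names 77 µM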
Rango dissoc inh: inhibitors of RanGTP-induced Rango-importin beta complex dissociation. Biochemical FRET Rango-importin beta, RanGTP-induced dissociation. O95149+P62826. 340,000 compounds, 0.071% hits. Potency, µM (titrated, usually from 46.1 µM), for the others: top-dose activity change, negative = inhibition; active means falling FRET ratio curve, often poorly fitted, with flat reads before Ran was added; inconclusive means other falling curves, or compound fluorescence or quenching; inactive means flat or rising ratio curve;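 also: potency is read from the fitted curve at half-maximal effect; % of control where 0% means no effect; nearly all actives have a fitted effect of over 45% in size; -100% = wells without RanGTP and RCC1; the record marks most hits as doubtful in a second field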
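Compounds sat 5 min at room temperature with 0.1 uM Rango biosensor plus 0.25 uM importin beta, then FRET pre-read. RanGTP-RCC1 (0.6 uM Ran, 2mM GTP, 0.2 uM RCC1) added for 45 min, and the CFP/YFP post-read measured blocked complex dissociation.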
Rango complex inh: Rango-importin beta binding inhibition | Rango CFP/YFP FRET sensor + importin beta, 45 min | Potency, µM (series often up to 92.2 µM), without a hit: top-dose inhibition of complex formation | 340,000 compounds, 0.031% hits | Q14974; active = rising FRET ratio curve, often small or poorly fitted; inconclusive = mostly compound fluorescence or quenching in the first reads; inactive = flat curves in all reads;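 also: potency is read from the fitted curve at half-maximal effect; 0% = DMSO wells and 100% = buffer wells lacking importin beta; nearly all actives have a fitted effect of over 15% in size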
Target sequence (Q14974 whole entry, looked up): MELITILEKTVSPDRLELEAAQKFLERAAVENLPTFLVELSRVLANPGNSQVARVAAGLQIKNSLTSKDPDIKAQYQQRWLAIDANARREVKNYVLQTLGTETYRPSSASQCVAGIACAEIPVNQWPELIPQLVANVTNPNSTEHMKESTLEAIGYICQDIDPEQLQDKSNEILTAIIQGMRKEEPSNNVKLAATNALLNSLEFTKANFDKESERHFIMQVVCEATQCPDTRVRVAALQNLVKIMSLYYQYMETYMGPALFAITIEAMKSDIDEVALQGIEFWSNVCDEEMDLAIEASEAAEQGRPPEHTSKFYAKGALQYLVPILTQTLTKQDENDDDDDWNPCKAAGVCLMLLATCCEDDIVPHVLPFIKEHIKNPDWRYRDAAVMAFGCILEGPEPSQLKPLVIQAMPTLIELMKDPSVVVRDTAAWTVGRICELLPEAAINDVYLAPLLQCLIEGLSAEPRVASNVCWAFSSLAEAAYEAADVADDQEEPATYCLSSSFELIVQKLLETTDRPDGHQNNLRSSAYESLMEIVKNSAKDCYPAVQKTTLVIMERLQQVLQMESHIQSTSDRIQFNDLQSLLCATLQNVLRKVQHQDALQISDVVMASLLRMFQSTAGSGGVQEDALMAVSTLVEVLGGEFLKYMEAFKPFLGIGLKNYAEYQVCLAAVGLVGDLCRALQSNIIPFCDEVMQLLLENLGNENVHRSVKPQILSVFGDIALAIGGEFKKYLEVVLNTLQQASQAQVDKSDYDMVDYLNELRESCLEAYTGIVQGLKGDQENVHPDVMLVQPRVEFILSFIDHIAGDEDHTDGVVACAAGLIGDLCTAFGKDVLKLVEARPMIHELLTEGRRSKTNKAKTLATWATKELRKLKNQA
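FRET biosensor Rango (snurportin 1 IBB between N-terminal EYFP and C-terminal Cerulean), 50 nM in PBS/1 mM DTT/0.02% Tween-20/0.1% BSA, preincubated 5 min RT with compound; 0.125 microM importin beta added, 45 min RT, CFP/YFP FRET ratio read.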
miR-21 reporter: miR-21 reporter, rising signal. AID 2288. 340,000 tested, under 10 active. Potency, µM (top dose mostly 38.3 µM), for inactives: top-dose reporter change, positive = more light. HeLa miR-21 FLuc reporter, luciferase, 48 h; active = well fitted rising curve with a large enough effect; inconclusive = small, poorly fitted or top-dose-only effect; inactive = no such curve, though single readings can be large or run the other way;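 also: % of control where 0% means no effect; miR-21 action dims this reporter so a rising signal means less miR-21 action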
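HeLa cells stably expressing CMV-driven firefly luciferase with a downstream miR-21 binding sequence, endogenously expressing miR-21, were treated with titrations (up to about 40uM final) for 48 hours at 37 degree Celsius. Luciferase luminescence was read after lysis.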
An asterisk follows results filed as active; ? = inconclusive; . = no result given. This is a subset (hit frequency here may not be typical).

Below each SMILES: GLA inh pH 4.5, Rango dissoc inh, Rango complex inh, miR-21 reporter
CC(=O)Nc1cc(C(=O)N2CCC3(CC2)OCCO3)ccc1Sc1ccc(F)cc1
 : -1, -14%, -1.6%, -4%
Clc1ccc2c(c1)C(c1ccccc1Cl)=NCc1nncn1-2
 : -2, 15%, 1.2%, -2%
CC1(C)C(C(=O)NCc2ccco2)C1(C)C
 : 5, 2%, 6.4%, 2%
C[C@@H]1C(=O)O[C@@H]2CC34[C@H]5C[C@@H](C(C)(C)C)C36[C@H](OC(=O)[C@@H]6O)OC4(C(=O)O5)[C@@]12O (stereo partly drawn)
 : 2, 10%, -3.4%, -1%
COC(=O)C1=C(c2ccc(C(C)=O)cc2)C[C@@H]2CC[C@H]1N2C(=O)NCc1ccc2c(c1)OCO2
 : ., -11%, 0.9%, .
C=CCn1c(O)c(C(C)=NCCCN2CCOCC2)c(=O)[nH]c1=O
 : 2, -16%, 3.2%, -2%
O=C(CCC(=O)N1CCC2(CC1)OCCO2)Nc1nnc(C(F)(F)F)s1
 : 6, 35%, 1.6%, 2%
COc1ccc(OCC#CCN2CCCCCC2)cc1
 : ?, -4%, -1.0%, -22%
COc1ccccc1Cn1c(SCC(=O)C(C)(C)C)nc2cc(C(=O)N3CCC4(CC3)OCCO4)ccc2c1=O
 : -2, ., ., 0%
COc1ccccc1-n1c(/C=C/c2ccccn2)nc2ccccc2c1=O
 : ., 3%, -0.1%, ?
Cc1ccc(CN2CCSc3ccc(C(=O)N4CCC5(CC4)OCCO5)cc32)cc1
 : ., 2%, -1.6%, 5%
CN(C)C(=O)Oc1ccc(C(=O)c2ccccc2)cc1
 : 5, 9%, 0.0%, -48%
N=Cc1c(O)n(-c2cccc(Cl)c2)c(=O)[nH]c1=O
 : -2, 0%, -0.6%, 1%
Cc1cccc(N2C(=O)NC(=O)C3(Cc4cc(C)ccc4N(C)C3)C2=O)c1 (stereo not drawn)
 : 0, -22%, -6.7%, -6%
COc1cccc(N2C(=O)NC(=O)/C(=C\c3ccc([N+](=O)[O-])s3)C2=O)c1
 : -24, 6%, 8.4%, -1%
CCCCn1c(O)c(C=NCCCN(CC)CC)c(=O)[nH]c1=O
 : 10, 1%, 3.1%, 1%
CC(=O)O[C@H]1C[C@@H]2OC3C=C(C)CCC3(C)[C@@]1(C)[C@@]21CO1 (stereo partly drawn)
 : ., 4%, 0.5%, .
CN1CCN(Cc2cc3c(cc2[N+](=O)[O-])OCO3)CC1
 : ., 0%, 9.1%, 0%
CNS(=O)(=O)c1ccc(N=Cc2c(O)n(-c3ccccc3)c(=O)[nH]c2=O)cc1
 : -3, -1%, -1.6%, 0%
COc1ccc(CN2CCCC(C(=O)c3cccc(Cl)c3)C2)cc1 (stereo not drawn)
 : ., -10%, 0.3%, 2%
C[C@]12CCCCC1=CC(=O)C1C2CC[C@@]2(C)C1C[C@@H](F)[C@@H]2O (stereo partly drawn)
 : ., 3%, 1.2%, .
CN1C(=O)C(=Cc2ccc(OCCN(C)c3ccccn3)cc2)C(=O)N(C)C1=O
 : 14, 1%, -0.3%, -24%
CC1(C)NCCN2C(=O)CSC21 (stereo not drawn)
 : 0, -5%, 2.4%, -2%
O=c1c2ccccc2nc(/C=C/c2ccc(O)c(O)c2)n1-c1ccccc1
 : ., ?, ?, 27%
CCNC(=O)O/N=C(\C)c1sc(-c2ccccc2)nc1C
 : ?, 12%, -0.8%, -50%
CCOC(=O)C1=CC(=C2C(=O)N(CC)C(=S)N(CC)C2=O)c2ccccc2O1
 : -1, -18%, ?, -3%
Cc1cc(/C=C2\C(=O)NC(=O)N(c3ccc(Cl)cc3)C2=O)c(C)n1-c1sc2c(c1C#N)CCCC2
 : 4, -21%, ?, 0%
C[Se]C[C@@H](N)C(=O)O
 : ., -4%, -1.3%, .
Cc1cc(OCC(=O)NCC(O)c2ccccc2)c2c3c(c(=O)oc2c1)CCC3 (stereo not drawn)
 : ., 0%, 4.2%, -3%
Oc1cc2c(cc1CN1CCN(c3ccccc3)CC1)CCC2
 : -1, ?, -0.6%, -1%

Four compounds picked at random from the list so far:
Below each SMILES: GLA inh pH 4.5, Rango dissoc inh, Rango complex inh, miR-21 reporter
O=c1c2ccccc2nc(/C=C/c2ccc(O)c(O)c2)n1-c1ccccc1
 : ., ?, ?, 27%
Cc1cc(OCC(=O)NCC(O)c2ccccc2)c2c3c(c(=O)oc2c1)CCC3 (stereo not drawn)
 : ., 0%, 4.2%, -3%
CN1CCN(Cc2cc3c(cc2[N+](=O)[O-])OCO3)CC1
 : ., 0%, 9.1%, 0%
C[C@]12CCCCC1=CC(=O)C1C2CC[C@@]2(C)C1C[C@@H](F)[C@@H]2O (stereo partly drawn)
 : ., 3%, 1.2%, .

Next part
Below each SMILES: GLA inh pH 4.5, Rango dissoc inh, Rango complex inh, miR-21 reporter
O=C(c1cc([N+](=O)[O-])ccc1N1CCNCC1)N1CCOCC1
 : 2, -14%, -1.6%, -2%
Cc1ccc(C)c(OCc2cc(C(=O)N3C[C@H]4C[C@@H](C3)c3cccc(=O)n3C4)no2)c1
 : ., 15%, -3.1%, -5%
O=C(O)CCn1cc(C=C2C(=O)NC(=S)NC2=O)c(-c2cc3ccccc3oc2=O)n1
 : -1, -11%, 2.5%, -7%
CCn1c(=O)n(CC(=O)N2CCC3(CC2)OCCO3)c(=O)c2ccccc21
 : ?, -4%, -2.9%, -3%
CCOP(=S)(NN(Cc1ccccc1)C(=O)c1ccccc1)OCC
 : 18, -10%, 0.9%, 1%
Cc1cccc(N2C(=O)NC(=O)/C(=C\c3cnc(-c4ccccc4)nc3)C2=O)c1
 : -4, 0%, -2.8%, -21%
COc1ccc(NC(=O)CN2C3CCC2CC(O)(c2cccnc2)C3)cc1OC (stereo not drawn)
 : 2, -7%, -0.5%, -9%
CN1CCN(c2ccc([N+](=O)[O-])c(N3CCCCC3)c2)CC1
 : 2, 5%, -0.2%, 1%
COc1ccc(Br)cc1CNCCc1cccc(Cl)c1
 : ., 4%, -1.1%, -7%
CCC(C)n1c(O)c(C=NC(C)c2ccccc2)c(=O)[nH]c1=S (stereo not drawn)
 : -8, 15%, 4.7%, 3%
COC(=O)C1=C(c2ccccc2OCc2ccccc2)C[C@@H]2CC[C@H]1N2C(=O)NCc1cccc(C(F)(F)F)c1
 : ., 0%, -1.4%, .
CCCCn1c(C)c(C(=O)OCC)c2c(CN3CCOCC3)c(O)ccc21
 : -10, -4%, -2.8%, -4%
O=c1[nH]c(=O)n(Cc2ccco2)c(O)c1C=NCc1cccs1
 : 2, -8%, 1.8%, -1%
CC12CCC3C(CCC4(O)CC(O)CCC34C=NO)C1(O)CCC2C1=COC(=O)C1 (stereo not drawn)
 : ., 4%, -1.8%, .
CC(C)Cc1[nH]c(=O)c(C#N)c2c1CCC2
 : 7, -15%, 1.7%, -13%
CCC1(OC(=O)CN)C(=O)OCc2c1cc1n(c2=O)Cc2cc3ccccc3nc2-1 (stereo not drawn)
 : ?, -12%, 1.4%, ?
CCN1c2nc3ccccn3c(=O)c2CC2(C(=O)N(C)C(=O)N(C)C2=O)C1C (stereo not drawn)
 : 1, -11%, 0.6%, -9%
CCCCCn1c(=O)c(C(=O)Nc2ncccc2C)c(O)c2ccccc21
 : ., -1%, 3.0%, -6%
COC(=O)C1=Nc2ccccc2/C1=C\c1c(O)n(-c2ccc(Br)cc2)c(=O)[nH]c1=O
 : -2, 14%, -0.1%, 1%
CCOc1cccc(N2C(=O)/C(=C/c3ccco3)C(=O)NC2=S)c1
 : ., 0%, ?, 4%
COC(=O)C1=C(c2cccc(OC)c2OC)C[C@@H]2CC[C@H]1N2C(=O)NCc1ccc(F)cc1
 : ., 5%, -1.3%, .
O=S1(=O)CCN(CCc2c[nH]c3ccccc23)CC1
 : 4, 12%, 0.7%, -3%
COC(=O)C1=C(c2ccc(F)cc2F)C[C@@H]2CC[C@H]1N2C(=O)NCC1CC1
 : ., -13%, -0.4%, .
Cc1ccc(C)c(-n2c(C)nc3ccccc3c2=O)c1
 : -4, 0%, -0.5%, 0%
CC1=CC(=C2C(=O)NC(=S)NC2=O)C=C(C(F)(F)F)N1Cc1ccccc1
 : -5, ?, ?, 22%
CC(Cc1cccs1)NCc1ccccc1 (stereo not drawn)
 : -4, -11%, -0.2%, 0%
O=C(Nc1ccccc1)OC1CN=C(N[N+](=O)[O-])NC1 (stereo not drawn)
 : -2, 1%, 0.2%, -2%
O=c1c2ccccc2nc(CN2CCOCC2)n1-c1ccccc1F
 : -8, -7%, -0.3%, -9%
CCN1CCN(c2nc3ccccc3s2)CC1
 : 4, 29%, -2.4%, -40%
Nc1ccc(Cc2ccc(N)cc2)cc1
 : ., -5%, -0.8%, .

Another view of some results above:
Structure | GLA inh pH 4.5 | Rango dissoc inh | Rango complex inh | miR-21 reporter
CCCCn1c(O)c(C=NCCCN(CC)CC)c(=O)[nH]c1=O | 10 | 1% | 3.1% | 1%
O=C(c1cc([N+](=O)[O-])ccc1N1CCNCC1)N1CCOCC1 | 2 | -14% | -1.6% | -2%

(continued)
Below each SMILES: GLA inh pH 4.5, Rango dissoc inh, Rango complex inh, miR-21 reporter
Cc1nc2ccccc2n1C1CCN(Cc2nnnn2CCc2ccccc2)CC1
 : 6, -8%, -0.2%, -20%
C=CCn1c(O)c(C(CC)=NCCc2ccccc2)c(=O)[nH]c1=O
 : -11, -10%, 0.4%, -4%
COc1ccccc1-n1c(-c2ccccc2)nc2ccccc2c1=O
 : ., 13%, -3.9%, 5%
CCOC(=O)C1=C(N)OC2=C(C(=O)CCC2)[C@]12C(=O)N(CC(N)=O)c1ccccc12
 : -6, 37%, -3.2%, -1%
Cc1cccc(N2C(=O)NC(=O)/C(=C\c3cc(C)n(-c4sc5c(c4C#N)CCCC5)c3C)C2=O)c1C
 : 12, -1%, -3.1%, -2%
O=C(c1ccc2c(c1)N(Cc1ccccc1)CCS2)N1CCC2(CC1)OCCO2
 : ., 0%, -1.7%, 0%
COC(=O)NC(=S)Nc1ccccc1NC(=S)NC(=O)OC
 : -5, -9%, -3.0%, .
CSc1ccc(C(=O)C(C)(C)N2CCOCC2)cc1
 : -1, 0%, 10%, -9%
NP(=O)(Oc1ccc(Cl)cc1)Oc1ccc(Cl)cc1
 : 2, 3%, -0.6%, -3%
O=C(C1c2ccccc2C(=O)N2CCc3ccccc3C12)N1CCC2(CC1)OCCO2 (stereo not drawn)
 : 0, 1%, -4.9%, 0%
CCOP(=O)(OCC)c1cc(CC)ccc1O
 : -3, 13%, -2.1%, 0%
Cc1nc2c(c(=O)[nH]1)C(c1ccc([N+](=O)[O-])cc1)c1c(c3ccccc3oc1=O)O2 (stereo not drawn)
 : -7, -18%, -0.2%, -6%
CC(C)NS(=O)(=O)c1ccc(OCC(=O)N2CCN(Cc3ccccc3)CC2)c(Cl)c1
 : -11, 17%, 2.7%, 11%
COc1cccc(-n2c(/C=C/c3ccc(O)c(O)c3)nc3ccccc3c2=O)c1
 : -5, ?, ?, -18%
O=C(COc1ccc2ccccc2c1)N1CCN(Cc2ccncc2)CC1
 : 0, 13%, -1.5%, 1%
CN(C)C(=O)Oc1ccc([N+](=O)[O-])cc1
 : 0, 0%, -0.5%, -2%
C=CCn1c(O)c(C(C)=O)c(=O)[nH]c1=O (tested in a mixture with another compound)
 : 6, 1%, 0.4%, -2%
CC1=NN(Cc2c[nH]c3ccccc23)C(C)(C)C1
 : 6, -21%, 6.1%, 1%
CCN(CC)C(=O)c1ccc(NC(=O)c2cn(-c3ccccc3)nc2-c2ccc(OC)cc2)cc1
 : ., 15%, -1.6%, 11%
COc1ccc(C)cc1NC(=O)c1c(C)nn(Cc2ccccc2)c1Cl
 : -12, -16%, 6.5%, -2%
CN1CCN(c2ccc(N)cc2)CC1
 : 8, 13%, 0.4%, -8%
CCCn1nc2ccccc2c1P(=O)(N1CCOCC1)N1CCOCC1
 : 1, 4%, -2.6%, 0%
COP(=O)(OC)C(NS(=O)(=O)c1ccccc1)C(Cl)(Cl)Cl (stereo not drawn)
 : -6, -1%, 5.4%, 0%

Assay outcomes: PubChem, National Center for Advancing Translational Sciences (NCATS)
